Source: PubChem BioAssay (several laboratories)
Insulin prom inh = TRM-6 insulin promoter activity inhibition | TRM-6 cells (human fetal islet line), insulin promoter-eGFP reporter, imaging; reporter expression induced with tamoxifen | inhibition, % at 2 µM | actives 0.9% (n = 130,000);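 active means inhibition above the mean plus 3 SD, with well images judged a real hit on visual review, cut at about 60% in these data, passing the limit was not always enough; inconclusive means inhibition over the cutoff but images rejected on review; inactive means inhibition not above the cutoff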
RGS16-Gao = RGS16-Galphao interaction regulator (human); bead-based flow cytometry RGS16-Galphao binding, fluorescence; actives lie on both sides; binding response (% of control), % at 10 µM; actives 0.38% (n = 220,000);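 active means below 25% or above 175%, edge rows of some plates excepted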;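 further: Galphao activated by GDP with aluminum fluoride before binding; 100% = wells without compound and 0% = beads without RGS; some results beyond the cut were filed as inactive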
Target sequence (O15492 whole entry, looked up): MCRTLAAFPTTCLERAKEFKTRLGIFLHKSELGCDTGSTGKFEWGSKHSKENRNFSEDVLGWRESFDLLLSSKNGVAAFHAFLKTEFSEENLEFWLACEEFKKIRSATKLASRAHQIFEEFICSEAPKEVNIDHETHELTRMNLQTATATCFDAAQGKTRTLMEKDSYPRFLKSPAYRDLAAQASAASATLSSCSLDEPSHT
Target sequence (P09471 whole entry, looked up): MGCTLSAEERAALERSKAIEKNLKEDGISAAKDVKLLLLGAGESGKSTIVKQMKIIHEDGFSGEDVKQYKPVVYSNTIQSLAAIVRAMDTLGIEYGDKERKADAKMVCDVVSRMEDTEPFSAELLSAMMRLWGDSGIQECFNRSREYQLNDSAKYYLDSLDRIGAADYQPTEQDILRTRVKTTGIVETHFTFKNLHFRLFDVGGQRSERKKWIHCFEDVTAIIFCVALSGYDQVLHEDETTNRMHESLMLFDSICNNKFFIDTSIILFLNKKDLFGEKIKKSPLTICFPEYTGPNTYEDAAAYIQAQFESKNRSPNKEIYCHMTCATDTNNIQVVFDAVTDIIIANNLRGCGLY
PKD1 kinase inh = blocks activity of human protein kinase D1; actives 0.056% (n = 200,000); inhibition, %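 (about 10 µM by stock and volumes)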; AID 797; PKD1 kinase fluorescence polarization assay;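 active means inhibition of 50% or more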;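 further: controls were vehicle for no effect and a reference inhibitor for full effect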
HSV augment = increases HSV replication in cells; HSV replication augmentation in cells, fold increase; maximum fold increase; actives 0.005% (n = 220,000);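 active means peak rise of 1.5-fold or more in the series; inconclusive means self-fluorescent or not available for retest; tested in PC3 cells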;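 further: first round at 10 µM; read as green reporter fluorescence; hits show the peak of a series up to 25 µM; 1 = signal of infected wells without compound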
GALR2 agonist = GALR2 (human) receptor agonism; activation, %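 (tested at 5 µM)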; GALR2-expressing cells, agonist activation read-out; actives 0.48% (n = 140,000); AID 803;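 active means above mean plus 3 SD of all compounds, about 5% in these data, not always enough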;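 further: 0% = vehicle buffer wells and 100% = reference agonist at full effect; tested in CHO reporter cells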
Target sequence (O43603 whole entry, looked up): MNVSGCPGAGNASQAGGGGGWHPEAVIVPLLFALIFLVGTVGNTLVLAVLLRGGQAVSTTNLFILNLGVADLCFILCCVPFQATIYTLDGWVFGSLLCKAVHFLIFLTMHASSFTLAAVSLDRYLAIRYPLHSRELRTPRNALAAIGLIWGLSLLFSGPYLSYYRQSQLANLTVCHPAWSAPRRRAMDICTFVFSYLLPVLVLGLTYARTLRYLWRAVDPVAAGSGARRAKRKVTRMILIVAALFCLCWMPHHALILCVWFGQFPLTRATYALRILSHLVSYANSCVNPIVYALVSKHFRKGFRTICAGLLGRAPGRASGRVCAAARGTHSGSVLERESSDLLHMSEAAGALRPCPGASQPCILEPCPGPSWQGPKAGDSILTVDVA
Insulin prom inh cell count = recorded beside Insulin prom inh, whose call it bears; normalized cell count, %; measured here: cell count, toxicity; reference of the scale not given here;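 cells exposed to compound for 48 h; stained nuclei by imaging scaled within each plate; lower means fewer cells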
HSV augment primary fold = second read-out of HSV augment, no call of its own (marks repeat the call); fold increase; compound at 10 µM; measured here: primary screen fold increase 10 uM; tested in PC3 cells;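 GFP signal in the first replicate; 1 = infected wells without compound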
* = called active by the depositor; i = inactive; ? = inconclusive; · = no result given.

Sequence of screens: Insulin prom inh	Insulin prom inh cell count	RGS16-Gao	PKD1 kinase inh	HSV augment	HSV augment primary fold	GALR2 agonist
CCCCS(=O)(=O)Nc1ccc(C(=O)NCC2CCCO2)cc1 (stereo unspecified)
 : 36.4	110.1	91.6	4.1	i	0.66	-3.3
Cc1onc(-c2ccccc2Cl)c1C(=O)NCc1cccnc1
 : -5.3	150.7	108.3	-3.4	i	0.97	-1.0
COc1ccccc1C1C(C(N)=O)=C(C)Nc2nc(-c3ccc(Cl)cc3)nn21 (stereo unspecified)
 : ·	·	100.4	3.8	i	0.92	-0.7
O=C(c1ccncc1)N1C2C=CC(C2)C1(C(F)(F)F)C(F)(F)F (stereo unspecified)
 : 36.4	81.4	77.6	-3.5	i	0.79	-0.2
Cc1c(C2=CCN(S(=O)(=O)c3ccc(Cl)cc3)CC2)c2ccccc2n1C
 : -29.6	100.0	104.3	-7.7	i	1.2	-0.4
C[N+]1(CCOc2ccc([N+](=O)[O-])cc2)CCOCC1
 : 0.0	80.1	102.4	-12.6	i	1.04	-2.1
C1CCN(c2nc3nonc3nc2N2CCCCC2)CC1
 : 0.0	89.4	104.2	3.8	i	1.05	-3.0
CCOC(=O)NC(=O)COC(=O)Cc1cc(OC)c(OC)c(OC)c1
 : 14.3	50.2	92.5	3.8	i	1.07	-6.3
CN1CCN(C(=S)NC(=O)/C=C/c2cccc3ccccc23)CC1
 : 8.6	137.1	110.9	-2.5	i	0.95	21.9*
Cc1ccccc1NC(=O)CN1C(=O)CSc2ccccc21
 : ·	·	102.1	·	i	0.81	·
CCOC(=O)C1C(=O)OC(C)(C)C1C(C)C(=O)c1ccc(C)cc1C (stereo unspecified)
 : ·	·	101.4	-1.4	i	0.72	·
Cc1cc(C)cc(C(=O)N(NC(=O)Nc2ccc(Cl)cc2)C(C)(C)C)c1
 : ·	·	94.3	-0.7	i	1.01	-1.4
COc1ccc(S(=O)(=O)NCc2ccc3c(c2)OCO3)cc1C
 : -42.9	74.7	176.8	-10.7	i	0.92	-3.0
Cc1cc(N(CN2CCCC2=O)C(=O)c2ccc(F)cc2)no1
 : ·	·	102.3	3.7	i	0.83	-3.5
COc1cc(OC)cc(C(=O)N2CCN(C(=O)c3ccc(-c4ccccc4)cc3)CC2)c1
 : 33.3	103.7	100.2	-2.5	i	0.91	·

Profiles, quoted from the list.
Results for `Cc1c(C2=CCN(S(=O)(=O)c3ccc(Cl)cc3)CC2)c2ccccc2n1C` = Insulin prom inh = -29.6; Insulin prom inh cell count = 100.0; RGS16-Gao = 104.3; PKD1 kinase inh = -7.7; HSV augment = i; HSV augment primary fold = 1.2; GALR2 agonist = -0.4
Results for `C[N+]1(CCOc2ccc([N+](=O)[O-])cc2)CCOCC1` = Insulin prom inh = 0.0; Insulin prom inh cell count = 80.1; RGS16-Gao = 102.4; PKD1 kinase inh = -12.6; HSV augment = i; HSV augment primary fold = 1.04; GALR2 agonist = -2.1
Results for `Cc1cc(N(CN2CCCC2=O)C(=O)c2ccc(F)cc2)no1` = Insulin prom inh = ·; Insulin prom inh cell count = ·; RGS16-Gao = 102.3; PKD1 kinase inh = 3.7; HSV augment = i; HSV augment primary fold = 0.83; GALR2 agonist = -3.5

Other results.
Sequence of screens: Insulin prom inh	Insulin prom inh cell count	RGS16-Gao	PKD1 kinase inh	HSV augment	HSV augment primary fold	GALR2 agonist
CCOC(=O)C1CCN(C(c2cccnc2)c2c(NC(=O)c3ccco3)sc(C)c2C)CC1 (stereo unspecified)
 : 28.6	106.1	97.0	-4.9	·	·	-0.1
Nc1ccccc1S(=O)(=O)NC1=NCCCCC1
 : 29.0	115.0	102.6	6.4	i	1.05	-0.7
O=C(O)c1ccc(NS(=O)(=O)c2ccc3c(c2)C(=O)c2ccccc2C3=O)cc1
 : ·	·	109.2	6.2	i	0.91	·
CC(C)=CC(=O)Nc1nnc(C(C)C)s1
 : 14.3	204.5	100.0	-1.3	i	0.99	-0.2
CCC(=O)NC(Nc1nc(C)cs1)(C(=O)OC)C(F)(F)F (stereo unspecified)
 : -21.4	73.2	101.0	-27.1	i	0.98	-2.0
O=C1NC(c2ccccc2)=NC1(Nc1ccccn1)C(F)(F)F (stereo unspecified)
 : -18.8	90.7	104.1	-2.6	i	1.09	0.6
CCN(CC#CCC(O)(c1ccccc1)c1ccccc1)C(C)C
 : ·	·	107.8	-12.3	i	1.04	-1.4
Cc1c(-c2ccco2)[n+](=O)c2c(n1[O-])CCCCC2
 : ·	·	97.0	8.7	i	1	-6.5
O=c1c2oc3nc4c(cc3c2ncn1CCCc1ccccc1)CCCC4
 : ·	·	103.7	·	i	0.9	·
O=C(c1cccc([N+](=O)[O-])c1)c1ccc2c(c1)OCCOCCOCCO2
 : ·	·	94.5	·	i	0.79	·
CC1(c2ccccc2)NC(=O)N(CC(=O)Nc2ccc([N+](=O)[O-])cc2)C1=O (stereo unspecified)
 : ·	·	101.5	-11.2	i	1.08	·
Nc1c(Cl)ncnc1N/N=C/c1cccnc1
 : ·	·	98.7	·	i	0.86	·
CCCCn1c(CCC(=O)O)ccc1-c1cccs1
 : ·	·	105.2	4.5	i	1.16	-3.1
CN(CC(=O)O)Cc1nc2ccccc2[nH]1
 : ·	·	105.6	7.0	i	1.04	-1.4
O=C(C1CC1)N1CCc2cc(Br)cc(S(=O)(=O)NC3CCCCC3)c21
 : ·	·	107.8	-2.2	i	0.78	-1.4
CN1CCC2(CC1)N=C(c1ccc(F)cc1)C(=S)N2C(=O)c1ccccc1
 : ·	·	91.0	8.9	i	1.13	0.4
COC(=O)Nc1c(-c2ccccc2)nc2ccc(C)cn12
 : -7.7	94.8	101.3	-0.2	i	0.88	-1.7
COc1ccccc1OCCNC(=O)Nc1cc(F)c(F)cc1Cl
 : ·	·	100.3	·	i	0.94	·
Cc1cccc(-n2ccnc2SCC(=O)Nc2nnc(C)s2)c1
 : ·	·	102.0	-11.0	i	0.64	-2.5
O=C(C1CCN(c2nnc(-n3cccc3)s2)CC1)N1CCN(Cc2ccc3c(c2)OCO3)CC1
 : ·	·	99.7	-9.5	i	1.07	-0.8
O=S1(=O)CCN2C(c3ccco3)=CSC2=N1
 : ·	·	98.7	-10.5	i	1.02	-2.4
COc1ccc(CCNC(=O)CC2SC(=NCCc3ccccc3)NC2=O)cc1 (stereo unspecified)
 : -29.6	61.4	80.0	-9.7	i	0.89	0.1
Cc1oc(-c2cccc(Cl)c2)nc1CN1CCCC(C(=O)NC(C)c2ccc3c(c2)OCCO3)C1 (stereo unspecified)
 : ·	·	120.7	5.3	·	·	-1.9
COc1ccc(C(=O)C2CCCN(Cc3cccn3-c3ccc(Cl)cn3)C2)c(OC)c1 (stereo unspecified)
 : -39.1	74.4	105.7	1.3	i	0.78	·
CCOC(=O)c1cnc2c([N+](=O)[O-])cnn2c1C
 : ·	·	108.6	-3.3	i	1.01	·
C/C(=N\NC(N)=S)c1ccncc1
 : ·	·	96.8	·	i	1.03	·
CCC1CCc2c(sc3nc(SCC(=O)NCc4ccco4)n(-c4ccccc4)c(=O)c23)C1 (stereo unspecified)
 : 31.4	113.1	96.0	-7.7	i	1.09	-1.3
Cc1occc1C(=O)n1cnc2ccccc21
 : 30.0	98.7	110.0	-6.4	i	0.99	-1.2
CCOc1cccc(/C=N/NS(=O)(=O)c2ccc(C)c([N+](=O)[O-])c2)c1O
 : ·	·	94.4	-4.4	i	1	·
CCOC(=O)c1ccc(NC(=O)COc2cc3oc(=O)c(CC(C)O)c(C)c3cc2Cl)cc1 (stereo unspecified)
 : ·	·	98.4	·	i	0.81	·
O=C(Nc1cccc(S(=O)(=O)NC2=NCCCCC2)c1)c1cc(-c2ccncc2)nc2ccccc12
 : -40.0	113.8	100.8	-8.0	i	0.96	·
O=C(CN1CCN(C(=O)c2ccco2)CC1)Nc1c2c(nc3c1CCC3)CCCC2
 : ·	·	99.8	10.8	i	0.91	-0.7
CN(CCc1ccccn1)C(=O)c1nn2c(C(F)(F)F)cc(-c3ccco3)nc2c1Cl
 : ·	·	100.2	3.7	i	1.06	-0.5
Cc1ccc(C)c(OCc2nc3ccc(S(=O)(=O)Nc4c(C)n(C)n(-c5ccccc5)c4=O)cc3[nH]2)c1
 : ·	·	101.7	-8.0	i	1.01	·
COc1ccc(CCNC(=O)CCCn2nc(C)c([N+](=O)[O-])c2C)cc1OC
 : ·	·	98.6	8.7	i	1.02	·
CCN(CC)CCNC(=O)CCCCCn1c(=O)[nH]c2cc(C(=O)OC)ccc2c1=O
 : 25.0	135.5	100.9	-5.2	i	0.94	-1.1
O=[N+]([O-])c1ccc(-c2cc(-c3ccc(Cl)cc3)n[nH]2)cc1
 : -61.5	126.5	100.2	-4.0	·	·	-3.1
COCCCN=C1NN=C(c2cc(C)n(-c3ccccc3F)c2C)CS1
 : ·	·	93.9	-2.9	i	1.02	·
COc1ccc(NC(=O)CCCn2c(=O)[nH]c3ccccc3c2=O)cc1
 : ·	·	101.1	-2.8	i	1.05	0.0
C=CCN1CC(c2nc3ccccc3n2Cc2cccc3ccccc23)CC1=O (stereo unspecified)
 : 61.1	59.3	89.8	-1.3	i	0.95	-1.8
O=C(CCNS(=O)(=O)c1ccc(Br)s1)N1CCN(c2ccccc2)CC1
 : -78.6	158.2	101.7	-9.7	i	0.9	-3.7
CCCCN1C(=O)C2C(C(=O)Nc3cccc(OC)c3)C3C=CC2(O3)C1C(=O)NC1CCCCC1C (stereo unspecified)
 : -126.3	86.3	103.8	-6.6	i	1.11	-3.4
C=CCn1c(SCC(=O)Nc2c(C)n(C)n(-c3ccccc3)c2=O)nc2sc(C)c(C)c2c1=O
 : -31.4	66.9	106.9	7.0	i	0.92	-1.2
CCOCCCNCc1ccc(OC)c(OC)c1
 : ·	·	115.0	16.6	i	1.03	-2.1
Cc1ccc(/C=C/C(=O)O)cc1S(=O)(=O)N1CCCCC1
 : ·	·	98.2	·	i	0.95	·
CC(C)c1ccc(-c2nc3ccccc3s2)cc1
 : ·	·	102.8	·	i	1.03	·
CCOC(=O)N1CCN(C(=O)c2cc(Cl)c(Cl)cc2C(=O)O)CC1
 : -29.0	132.8	102.5	-3.7	i	1.06	-3.5
O=C(NCc1ccc2c(c1)OCO2)C1CCC(=O)N1C1CCCC1 (stereo unspecified)
 : -40.0	124.9	105.9	-7.6	i	0.9	·
CCCCc1c(C)nc2c(OC)cccc2c1SCC(=O)O
 : ·	·	99.9	·	i	0.97	·
CCn1c(SCC(=O)NC(C)(C)C)nnc1-c1ccncc1
 : 36.8	127.7	100.5	4.6	i	0.99	·
O=C(COc1ccc(F)cc1)N1CCc2ccccc2C1
 : ·	·	130.8	6.9	i	0.86	·
COc1ccc(NC(=O)C(c2ccc(OC)cc2)N(C)C(=O)Cc2cccs2)cc1 (stereo unspecified)
 : 0.0	73.3	89.9	-10.4	i	0.91	-2.1
CC(=O)NC1C(OCc2ccccc2)OC2COC(C)(C)OC2C1O (stereo unspecified)
 : ·	·	113.8	-9.9	i	0.97	·
COc1ccccc1N1C(=O)C2C(C(=O)c3ccccc3)=NN(c3ccccc3OC)C2C1=O (stereo unspecified)
 : ·	·	110.5	·	?	·	·
CCOC(=O)CNc1c(-c2ccc(O)cc2)nc2ccccn12
 : 6.2	110.7	99.0	-11.0	i	1.1	-2.9
Cc1cc(C)c(NC(=O)CSc2nncn2-c2cccnc2)c(C)c1
 : 53.3	141.0	100.4	0.1	i	0.88	·
Cn1c(=O)c2c(nc(N3CCOCC3)n2CCNC2=NCCC2)n(C)c1=O
 : -20.9	27.5	·	2.3	i	0.91	-1.4
CCCn1nc(Oc2nc(NCC)nc(NCC)n2)ccc1=O
 : -70.3	168.1	102.1	-6.3	i	0.91	-1.6
O=C1NC(c2ccccc2)(C(F)(F)F)SC2=CCCCCN12 (stereo unspecified)
 : ·	·	198.9	-5.4	i	1.06	-1.7
COCc1c(Br)c(C)nc(OCC(=O)O)c1C#N
 : -16.7	175.9	103.4	-2.3	·	·	-0.5

Next section.
Sequence of screens: Insulin prom inh	Insulin prom inh cell count	RGS16-Gao	PKD1 kinase inh	HSV augment	HSV augment primary fold	GALR2 agonist
COc1ccc(S(=O)(=O)N2CCc3ccccc3C2)cc1
 : ·	·	123.6	2.3	i	0.98	·
COc1ccc(NC(=O)c2cc(Br)c(Br)s2)cn1
 : ·	·	103.9	4.3	i	0.87	·
Cc1ccc2nc(N(CCN(C)C)C(=O)c3cc(Cl)sc3Cl)sc2c1
 : -18.8	76.1	50.0	-1.6	i	1.04	-0.7
NC(CSS(=O)(=O)O)=NCCC12CC3CC(CC(O)(C3)C1)C2
 : -10.0	60.5	104.9	-4.0	i	0.96	0.5
Cn1c(Cc2ccccc2)nnc1SCC(=O)N1CCCCC1
 : -64.5	148.9	106.3	-15.5	i	0.72	-2.5
Cc1cc(C(=O)Nc2nnc(C(F)(F)F)s2)cs1
 : ·	·	101.2	·	i	0.93	·
